Source: PubChem
Mtb hypoxia rep: PubChem AID 1159583; M. tuberculosis hypoxia-regulated fluorescent reporter, fluorescence; fluorescence inhibition, % (no concentration beside the values); 0.1% of 300,000 active;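 active means 35 to 45% if threefold the growth effect, above 45% if 1.5-fold the growth effect; inactive means the rest, general growth blockers included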;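 further: wells of about 50 µL received 100 nL stock; 0% = vehicle wells and 100% = reference inhibitor wells; whole bacteria with a GFP reporter of the hypoxia response; strong numbers were not always called active; many hits fall short of the cut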
Sa RN4220 lethal: growth inhibition of S. aureus RN4220, primary screen, OD600; 0.33% of 330,000 active; inhibition, % (test concentration not listed); AID 1259311, 2017; 16 h;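 active means z-score of -3 or lower and OD600 up to 0.18 on both plates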;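 further: plate controls were untreated cells for no effect and reference antibiotic for full effect; stock transfer was 100 nL into about 80 µL; one replicate is shown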
BJeLR lethal: MLPCN primary cell-based screen for lethality selective to Ras in HRASV12 cells; BJeLR (HRASV12) viability, CellTiter-Glo ATP luminescence, 48 h; reference of the scale not given here; AID 1554, 2009; inhibition, % (test concentration not listed); 0.17% of 300,000 active;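 active means replicate mean above 50%; inconclusive means above 50% but judged a plate artefact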;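 further: 50 nL library stock added to about 25 µL; numbers are from one replicate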
PrP UTR inh: inhibition of PrP 5' UTR reporter expression | cell-based PrP 5' UTR mRNA reporter, plate reader | inhibition, % (no concentration beside the values) | 0.35% of 340,000 active;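 active means every replicate at 50% or more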;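 further: 0 = median of the neutral control wells; tested in H4 reporter cells; numbers are from one replicate; inactives centre near -14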
Sa ugtP lethal: growth inhibition of ugtP-null S. aureus, primary screen, RN4220 ugtP deletion, OD600; 16 h; some inactives read as strong as hits; growth inhibition, % (test concentration not listed); 0.54% of 330,000 active;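 active means z-score under -3 and OD600 up to 0.15 on both plates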;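 further: plate controls were untreated wells for no effect and antibiotic for full effect; wells of about 80 µL received 100 nL stock; the first replicate is given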
Autofluor counter: flagged as autofluorescent in microsphere protease counterscreen; 3.1% of 360,000 active; fluorescence intensity (test concentration not listed); compound autofluorescence counterscreen, microsphere flow cytometry; stronger effect = higher value;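 active means at least 3 SD above the mean of all compounds, about 16000 in these data; inconclusive means too few beads counted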;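 further: 100 nL of 1 mM stock went into each well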
Mtb hypoxia rep growth: further read-out of Mtb hypoxia rep, marked with its call; growth inhibition, %; measured here: M. tuberculosis growth (absorbance);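 0% = vehicle and 100% = reference antibiotic; read after six days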
Starred values were filed as active, the others as inactive; ? = inconclusive; · = not tested or not shown; & = joins results of further samples.

SMILES | Mtb hypoxia rep | Mtb hypoxia rep growth | Sa RN4220 lethal | BJeLR lethal | PrP UTR inh | Sa ugtP lethal | Autofluor counter
CCCCCC(=O)N[C@@H](c1ccccc1)[C@@H](O)C(=O)O[C@H]1C[C@@]2(O)[C@@H](OC(=O)c3ccccc3)C3[C@](C)(C(=O)[C@H](OC(C)=O)C(=C1C)C2(C)C)[C@@H](O)C[C@H]1OC[C@@]31OC(C)=O (some centres undefined) | · | · | -2.0 | 27 | 43 | 0 | 4821
Brc1ccc(-c2nnc(-c3ccc4c(c3)OCO4)o2)o1 | 10 | 3 | 7.9 | 2 | · | -4 | 8045
O=C1c2ccccc2C(Nc2cccc(C(F)(F)F)c2)N1Cc1ccco1 (centres undefined) | · | · | -2.3 | 17 | -11 | 19 | 4943
Cc1ccc(CN2CC(C(=O)N3CCN(S(=O)(=O)c4cc(C)ccc4C)CC3)CC2=O)cc1 (centres undefined) | 5 | 13 | 7.7 | 1 | -23 | 4 | 5785
CCN(CC)c1nc(C#N)nc(N(CC)CC)n1 | -8 | 14 | 3.9 | 5 | -21 | 13 | 2971
COCCCN1C(=O)C(=O)/C(=C(/O)c2ccc(S(=O)(=O)N3CCOCC3)cc2)C1c1ccc(C)cc1 (centres undefined) | 10 | -13 | 4.7 | -11 | -7 | 6 | 4659
O=C1CCCc2c1cc(C(=O)Nc1ccc(Cl)cn1)c(=O)n2-c1ccccc1 | 6 | 18 | 5.3 | -3 | -25 | 0 | 3520
COc1ccc(CCNC(=O)C2c3ccccc3C(=O)N2CCC(C)C)cc1OC (centres undefined) | -8 | 5 | 1.9 | -2 | -24 | 5 | 4176
COc1ccc(C(=O)NN=C/C(Br)=C/c2ccccc2)cc1 | 3 | 6 | 0.0 | · | · | -18 | ·
O=C(NN=Cc1ccc(Cl)cc1Cl)Nc1ccccc1 | 3 | 3 | 1.0 | · | · | -3 | ·
OCc1cc(CO)c(O)c(CCc2ccccc2)n1 | · | · | 3.2 | -12 | -13 | 1 | 3003
c1ccc(-c2nnc(N3CCOCC3)nc2-c2ccccc2)cc1 | -2 | 4 | 3.5 | 6 | -20 | 25 | 10543
O=[N+]([O-])CC(c1ccccc1)P(=O)(c1ccccc1)c1ccccc1 (centres undefined) | 2 | 5 | 3.9 | -1 | -14 | 3 | 3523
CCOc1cc(NC(=S)NCCCN2CCOCC2)c(OCC)cc1NC(=O)c1cccc(F)c1 | -1 | 2 | 5.1 | · | -26 | -1 | 3732
Cc1ccc(S(=O)(=O)N2CCOCC2)cc1C(=O)N(C)CCOc1ccc(Cl)cc1 | 6 | 4 | 0.6 | 4 | 8 | 12 | 4109
CCOC(=O)c1cccc(NC(=O)CCn2nc(C)c(S(=O)(=O)N3CCCCC3)c2C)c1 | -12 | -6 | -0.8 | -6 | -8 | -1 | 5432
O=C(c1cccc(S(=O)(=O)NCc2ccc3c(c2)OCO3)c1)N1CCCC1 | 10 | 13 | 4.0 | · | · | 6 | 5059
CCCCn1c(=O)[nH]c2nc3cc(N)ccc3nc2c1=O | 4 | 7 | 6.9 | · | -43 | 0 | 8817
COCCn1c(C)cc(C(=O)COC(=O)CCN2C(=O)c3ccccc3C2=O)c1C | 7 | -1 | 0.7 | -3 | -20 | 4 | 3276
O=C(COC(=O)c1ccc(Cl)c([N+](=O)[O-])c1)NC1CCCC1 | 10 | 6 | -0.2 | -4 | -37 | 6 | 4070
CCOc1ccc(NC(=O)CC2C(=O)N(c3ccc(OC)cc3)C(=S)N2Cc2ccccn2)cc1 (centres undefined) | 17 | 1 | 0.7 | -3 | -54 | 10 | 4740
C/C(=N\NC(=O)c1cccc([N+](=O)[O-])c1)c1ccncc1 | · | · | · | 4 | 38 | · | 4720
CCN(CC(=O)Nc1c(F)cccc1F)C(=O)c1ccc2ncsc2c1 | 7 | -3 | -2.4 | -2 | -18 | 29 | 49356*
C=CCNC(=O)CN(Cc1ccccc1)S(=O)(=O)c1ccc(C)cc1 | 10 | 5 | 3.9 | -7 | 1 | 2 | ·
COc1ccc(Cl)cc1NC(=O)CC(C)=NNC(=O)C(=O)NCc1ccccc1 | -10 | -8 | -3.3 | · | · | -3 | ·

Whole records, quoted from the list.
O=C(COC(=O)c1ccc(Cl)c([N+](=O)[O-])c1)NC1CCCC1 is entered as Mtb hypoxia rep: 10; Mtb hypoxia rep growth: 6; Sa RN4220 lethal: -0.2; BJeLR lethal: -4; PrP UTR inh: -37; Sa ugtP lethal: 6; Autofluor counter: 4070
C/C(=N\NC(=O)c1cccc([N+](=O)[O-])c1)c1ccncc1 is entered as Mtb hypoxia rep: ·; Mtb hypoxia rep growth: ·; Sa RN4220 lethal: ·; BJeLR lethal: 4; PrP UTR inh: 38; Sa ugtP lethal: ·; Autofluor counter: 4720
Brc1ccc(-c2nnc(-c3ccc4c(c3)OCO4)o2)o1 is entered as Mtb hypoxia rep: 10; Mtb hypoxia rep growth: 3; Sa RN4220 lethal: 7.9; BJeLR lethal: 2; PrP UTR inh: ·; Sa ugtP lethal: -4; Autofluor counter: 8045

Further entries follow.
SMILES | Mtb hypoxia rep | Mtb hypoxia rep growth | Sa RN4220 lethal | BJeLR lethal | PrP UTR inh | Sa ugtP lethal | Autofluor counter
Cc1cccc(-n2cnc(C(=O)N/N=C/c3ccccc3)c2)n1 | · | · | · | 3 | -27 | · | 2740
COc1ccc([N+](=O)[O-])cc1NC(=O)C(C)OC(=O)CSC(C)C(=O)Nc1cc(C)on1 (centres undefined) | -4 | 10 | 2.6 | 9 | -2 | 3 | ?
CCC(Sc1ncnc2c1nnn2-c1ccc(F)cc1)C(=O)OC (centres undefined) | 9 | 8 | -6.0 | -7 | -24 | 21 | 3251
CCC(CC)c1nnc(NC(=O)CS(=O)(=O)Cc2ccccc2)s1 | · | · | 7.6 | -5 | -14 | 3 | 4149
CC1CCc2c(sc(NC(=O)c3ccccc3C(=O)O)c2C#N)C1 (centres undefined) | 5 | 11 | 5.5 | -3 | -24 | 1 | 1999
O=C(COc1ccc(Cl)cc1Cl)N(c1ccccn1)C1CCCCC1 | 3 | 10 | 5.2 | -5 | -47 | -1 | 2116
CC(C)CC(NC(N)=O)C(=O)NCc1ccc(Cl)cc1 (centres undefined) | 21 | 6 | 3.5 | 9 | -12 | 7 | 4332
COc1cccc(CN2CC(C(=O)N3CCN(c4ccc(Cl)cc4)CC3)CCC2=O)c1 (centres undefined) | -1 | 4 | -0.5 | 5 | -36 | 1 | 4996
Cc1cc(OC(C)C)c2c(-c3ccccc3)cc(=O)oc2c1 | · | · | -2.8 | -2 | -16 | 8 | 2918
Cc1nc(Cc2nnc(SCC(=O)N(C)c3ccccc3)o2)cs1 | 5 | -10 | 0.6 | 17 | -6 | 2 | 5597
COc1ccc(CCNC2=NCCS2)cc1OC | -2 | -9 | 1.9 | 5 | -17 | 3 | 4370
O=C(Nc1ccccc1)N1CCNCC1 | 2 | 0 | 5.4 | -8 | -6 | 4 | 3577
CC(C)[C@H](NC(=O)C1CCN(S(=O)(=O)c2ccccc2)CC1)C(=O)NCc1ccco1 | 10 | 8 | 1.2 | 8 | -9 | 10 | 5133
Cc1cc(NC(=O)c2cc(-c3ccc(O)cc3)on2)no1 | 14 | 16 | 5.1 | 2 | -65 | 9 | 4645
Cc1cc(OC(C)C(=O)NCC2CCC(C(=O)O)CC2)c2c(C)cc(=O)oc2c1 (centres undefined) | · | · | 1.8 | -2 | -12 | -5 | 3981
COc1ccc(/C=N/NC(=O)c2[nH]nc3c2CCc2ccccc2-3)cc1OC | · | · | · | -3 | -14 | · | 2645
COc1ccc(NS(=O)(=O)c2cccc(NC(=O)CCS(=O)(=O)c3ccccc3)c2)cc1 | 2 | -4 | -0.9 | 4 | -17 | 8 | 9054
CCOc1cc(C(=O)OC(C)C(=O)Nc2ccc(NC(C)=O)cc2)ccc1OCC(=O)N1CCCCC1 (centres undefined) | 4 | 9 | 2.2 | -2 | -8 | 6 | 6274
CCCNC(=S)N1CCN(Cc2ccc3c(c2)OCO3)CC1 | 6 | 7 | -1.7 | 5 | -7 | 4 | 4708
Cc1cc(C)n(C(=O)c2ccc(S(=O)(=O)NCC3CCCO3)cc2)n1 (centres undefined) | · | · | -3.1 | -8 | -20 | 4 | 4827
COc1ccc(C(=O)CC(Nc2ccc([N+](=O)[O-])cc2)c2ccc(OC)cc2)cc1 (centres undefined) | 14 | 6 | -6.2 | 9 | 10 | 4 | 24070*
O=C(CCCOc1ccc(Cl)cc1Cl)NN1CCOCC1 | 1 | -3 | 2.9 | -9 | -17 | 3 | 2574
O=C(OCn1ncc(Br)c(Br)c1=O)c1ccc(F)cc1 | 13 | 8 | 4.5 | -7 | -35 | 10 | 2922
CCCN1CCC(=O)N([C@H](CSc2ccccc2)c2ccccc2)CC1 | 3 | 5 | -11 | 12 | -3 | -7 | 4621
O=C(Nc1ccon1)c1ccc(Cl)c(S(=O)(=O)N2CCCCC2)c1 | 5 | 8 | 5.3 | 1 | -6 | 12 | 6081

The last 3 entries of the section above lead into the next.
SMILES | Mtb hypoxia rep | Mtb hypoxia rep growth | Sa RN4220 lethal | BJeLR lethal | PrP UTR inh | Sa ugtP lethal | Autofluor counter
O=C(OCn1ncc(Br)c(Br)c1=O)c1ccc(F)cc1 | 13 | 8 | 4.5 | -7 | -35 | 10 | 2922
CCCN1CCC(=O)N([C@H](CSc2ccccc2)c2ccccc2)CC1 | 3 | 5 | -11 | 12 | -3 | -7 | 4621
O=C(Nc1ccon1)c1ccc(Cl)c(S(=O)(=O)N2CCCCC2)c1 | 5 | 8 | 5.3 | 1 | -6 | 12 | 6081
Cc1ccc(-c2nc3sc4c(N)ncnc4c3c3c2CCCC3)cc1 | -6 | 13 | 0.8 | 6 | 8 | 0 | 22379*
O=c1oc2ccccc2c(N2CCOCC2)c1[N+](=O)[O-] | 4 | 6 | 3.4 | 12 | 3 | 5 | 4614
Cc1ccc(S(=O)(=O)NNC(=O)c2cc3cc4ccccc4nc3s2)cc1 | 0 | -1 | -3.4 | 0 | -16 | 3 | 4074
C/C(=N/NC(=O)c1ccccn1)c1c[nH]c2ccccc12 | · | · | · | 2 | -59 | · | 6357
c1cn2c(NC3CCCCC3)c(-c3ccc(SC4CCCCC4)cc3)nc2cn1 | -1 | -1 | -4.6 | -4 | -7 | -4 | 4078&10879
COc1ccccc1C(c1nnnn1CS(=O)(=O)c1ccc(C)cc1)N1CCSCC1 (centres undefined) | 7 | 2 | 7.5 | -4 | -9 | 4 | 5824
Cc1cc(C)n2nc(C(=O)OC(C)C(=O)c3ccccc3)nc2n1 (centres undefined) | 1 | 3 | 2.9 | -1 | -5 | 1 | 5800
COc1ccc(S(=O)(=O)Cc2ccc(C(=O)N3CCN(C(=O)c4ccco4)CC3)o2)cc1 | · | · | 6.6 | 5 | -26 | 7 | 4067
O=C(Cn1ncc2c3ccccc3n(Cc3ccccc3)c2c1=O)N1CCN(c2ncccn2)CC1 | 5 | 9 | 5.0 | -2 | -14 | 8 | 7124
O=C(NCc1ccco1)C1CCCN(S(=O)(=O)c2cc(Cl)ccc2Cl)C1 (centres undefined) | 4 | 11 | 2.4 | 7 | -21 | 2 | ?
CC(C)N(Cc1cnn(C)c1)Cc1nc(Cc2ccccc2Cl)no1 | 0 | 6 | 4.8 | 5 | -4 | 12 | 4462
c1ccc2c(c1)CC(N1CCCCC1)c1ccccc1N2 (centres undefined) | 4 | 8 | 2.7 | 3 | 8 | 5 | 2843
COc1cccc(NC(=O)C(Sc2nc3ccccc3c(=O)n2CC(C)C)c2ccccc2)c1 (centres undefined) | -9 | 6 | 15 | 1 | -18 | -5 | 2130
CC(C)Cc1nc(N2CCN(C(=O)C(C)C)CC2)c(C#N)c2c1CCC2 | · | · | 8.2 | 7 | -12 | -10 | 4866
